Screening results: PubChem, National Center for Advancing Translational Sciences (NCATS)
PINK1 expr mod: A Quantitative High throughput Screen to Identify Chemical Modulators of PINK1 Expression; PINK1 immunofluorescence, high-content cytometry, 24 h; Potency, µM (doses to about 76.6 µM), for inactives: top-dose activation (PINK1 increase), usual class: activators; actives 0.2% (n = 410,000); active = well fitted activation curve with a large enough effect; inconclusive = small, poorly fitted or top-dose-only effect; inactive = flat fitted curve, though single readings scatter; cell line not stated here;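 further: potency means the concentration at half of the fitted maximal effect; % of control where 0% means no effect; nearly all actives have a fitted effect of over 65% in size; a mitochondrial uncoupler was the plate control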
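Fluorescence from anti-PINK1 antibody, together with nuclear and cell stains, was scanned on a laser-scanning cytometer. Before staining, stable-line cells were incubated 24 hours with compounds at 5 concentrations; primary antibody 12 h at 10 degrees C.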
TRPV1 potentiator: HTS Assay for Compounds that Act as Potentiators of the Vanilloid Receptor 1; Transient receptor potential cation channel subfamily V member 1 (Homo sapiens), Q8NER1; potentiation, % at 8.33 µM; TRPV1-expressing cells, Fluo-8 calcium influx, capsaicin EC20 potentiation; host cell line not named in the record; control for the full effect not named in the record; actives 0.02% (n = 320,000); active means potentiation above 80%; inconclusive means 30% to 80%; inactive means below 30%; further: 0% is about no effect
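Cells expressing TRPV1 were dye-loaded with Fluo-8 and read kinetically: 10 s baseline, 3 min after compound (agonist portion), then 2 min after EC20 capsaicin (allosteric enhancer portion). Calcium-bound dye fluorescence at 480/520 nm.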
D2 agonist: Beta-Arrestin HTS for Positive Allosteric Modulators of the Human D2 Dopamine Receptor: Agonists. D(2) dopamine receptor (Homo sapiens), P14416. DiscoveRx PathHunter D2 beta-arrestin, luminescence, 90 min; 100% = 57 uM dopamine signal. activation, % (no concentration beside the values). actives 0.084% (n = 360,000); in the data active = activation above about 40%; inconclusive = about 15% to 40%; inactive = below about 15%; further: compound concentration not given in the record; the text of the record calls up to 30% inactive
Target sequence (P14416 whole entry, looked up): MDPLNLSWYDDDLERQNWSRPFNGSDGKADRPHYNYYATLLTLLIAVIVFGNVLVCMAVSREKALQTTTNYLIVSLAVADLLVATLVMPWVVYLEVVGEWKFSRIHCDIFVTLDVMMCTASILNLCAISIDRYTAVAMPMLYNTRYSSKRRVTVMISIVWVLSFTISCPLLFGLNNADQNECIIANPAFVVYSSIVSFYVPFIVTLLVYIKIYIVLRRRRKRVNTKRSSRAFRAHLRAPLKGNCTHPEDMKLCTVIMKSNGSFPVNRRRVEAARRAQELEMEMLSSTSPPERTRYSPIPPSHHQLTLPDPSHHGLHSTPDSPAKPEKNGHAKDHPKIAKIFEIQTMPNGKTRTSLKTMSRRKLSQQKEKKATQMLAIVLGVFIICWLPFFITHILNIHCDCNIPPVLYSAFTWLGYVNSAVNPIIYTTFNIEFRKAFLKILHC
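Agonist mode: compounds alone added to overnight-plated D2 PathHunter cells for 90 min at 37 C, with 57 uM final dopamine (EC100) defining full response. Beta-arrestin recruitment detected by chemiluminescent reagent, read after 1 h at ambient temperature.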
CtBP-E1A blk: qHTS Assay for Inhibitors of the CtBP/E1A Interaction; CtBP / adenovirus E1A interaction (AlphaScreen); AlphaScreen GST-E1A/His-CtBP binding, 1536-well; stronger effect = lower value; control for the full effect not named in the record; activity change, % (no concentration beside the values); actives 0.49% (n = 340,000); AID 651724, 2012; in the data active means activity change below about -65%; inconclusive means about -30% to -65%; inactive means above about -30%; further: on the % scale 0 is the no-effect control and ±100 the full control effect; compound concentration not given in the record
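Homogeneous bead-based format: GST-tagged E1A captured on glutathione donor beads, His-tagged CtBP on nickel acceptor beads; compounds precede bead addition by 2 h at 37 °C.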
Six1-Eya2 inh: qHTS Assay for Inhibitors of the Six1/Eya2 Interaction. actives 0.56% (n = 360,000). AlphaScreen GST-Six1/His-Eya2 binding, biochemical; stronger effect = lower value; control for the full effect not named in the record. activity change, % (concentration not given with the values). Homeobox protein SIX1 (Homo sapiens) + Protein phosphatase EYA2 (Homo sapiens), …; in the data active = activity change below about -65%; inconclusive = about -30% to -65%; inactive = above about -30%; further: on the % scale 0 is the no-effect control and ±100 the full control effect
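Compounds are tested against tagged Six1 and Eya2 proteins bridged by glutathione donor and nickel acceptor beads; after a one-hour incubation at 37 °C without light, AlphaScreen emission is recorded.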
D2 PAM: Beta-Arrestin HTS for Positive Allosteric Modulators of the Human D2 Dopamine Receptor: Potentiators. potentiation, % (no concentration beside the values). actives 0.23% (n = 360,000). AID 624464, 2012. DiscoveRx D2 beta-arrestin cells, luminescence, 90 min; 100% = 57 uM dopamine signal. D(2) dopamine receptor (Homo sapiens), P14416; active = potentiation of 50% or more; inconclusive = 30% to 50%; inactive = 30% or less;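 further: compound concentration not given in the record; tested on top of an EC20 dose of dopamine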
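PathHunter beta-arrestin assay in DiscoveRx D2 cells. Compounds were added with an EC20 of dopamine (50 nM final) for 90 min at 37 deg C. Luminescence was read 1 h after detection reagent, with 57 uM dopamine as the EC100 control.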
Sfp PPTase inh: qHTS Assay for Inhibitors of Bacillus subtilis Sfp phosphopantetheinyl transferase (PPTase) | actives 3.5% (n = 310,000) | Potency, µM, without a hit: max response, negative = inhibition, actives largely listed as inhibitors | AID 1490, 2009 | 4'-phosphopantetheinyl transferase ffp (Bacillus subtilis), Q9F4F7 | Biochemical Sfp PPTase activity, qHTS; active means well fitted inhibition curve with a large enough effect; inconclusive means small, poorly fitted or top-dose-only effect, or another doubt; inactive means no such curve, though single readings can be large or run the other way;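 further: the enzyme is Sfp with the accession as filed and its product quenches rhodamine fluorescence; potency means the concentration at half of the fitted maximal effect; 0% = enzyme reaction without inhibitor and -100% = no enzyme wells; top concentration of the series not given in the record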
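Sfp 15 nM + cpd, 15 min RT; start w/ rhodamine-CoA 5 uM, BHQ-2-YbbR 12.5 uM (final); 50 mM Hepes pH 7.6, 10 mM MgCl2, 0.01% NP-40, 0.01% BSA; read 525/598 nm at 0 and 30 min.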
The depositor's hits bear a star; u = inconclusive; x = no result given; [ ] = dose if it differs, or a comment. This is a random part of the collection; 3.7% or so of the library scored in one or more.

SMILES	PINK1 expr mod	TRPV1 potentiator	D2 agonist	CtBP-E1A blk	Six1-Eya2 inh	D2 PAM	Sfp PPTase inh
Cc1cccc(C)c1-n1nnnc1S(=O)(=O)Cc1ccccc1Cl	5.0%[38.3 µM]	17	-1.3	14	11	-5	-10%
CC(Sc1ncn[nH]1)C(=O)Nc1cc(C(F)(F)F)ccc1Cl (stereo not drawn)	1.9%	-5	-2.1	x	4	-3	x
Cc1ccc(S(=O)(=O)n2oc(=O)c(C3CCCCC3)c2N)cc1	3.0%	x	8.0	-69*	-78*	2	x
Cc1ccc(S(=O)(=O)n2cccc2/C=C/[N+](=O)[O-])cc1	-2.2%	x	-0.5	18	u	-53	x
COc1ccc(CCNC(=O)COC(=O)COc2ccc(Cl)cc2)cc1OC	1.4%	-4	-3.3	16	-1	2	22%
Cc1nnc(SCc2ccccc2F)n1NCc1cccs1	u	-11	-1.6	11	5	-5	-4%
O=C(O)c1cc2cc(S(=O)(=O)O)ccc2cc1O	-3.1%	x	0.4	10	1	11	x
Cc1cccc(C)c1Nc1cn[nH]c1	-0.5%	x	-5.4	6	13	-1	x
CSc1ccc(/C=N/NC(=O)CNc2ccc3ccccc3c2)cc1	-0.9%	8	0.8	-11	-17	2	-3%
COc1ccccc1/C=N/NC(=O)c1cccc(OC(F)(F)C(F)F)c1	7.4%	19	6.4	-2	-7	-3	10%
N#Cc1cccc(C(c2nnnn2C2CCCC2)N2CCC(Cc3ccccc3)CC2)c1 (stereo not drawn)	-1.0%	3	-3.6	-5	-2	1	15%
Cc1ccc(NC(=O)CN(C)C(=O)C2CCC2)cc1	1.2%	x	-5.6	7	5	-26	x
COc1ccccc1NC(=O)c1ccccc1Oc1ccccc1	3.7%	14	1.1	24	22	0	6%
COc1cc(OC)c(OC)cc1/C=C1\Oc2cc(OS(C)(=O)=O)ccc2C1=O	6.3%	-5	-0.2	-11	-25	-3	-4%
NC1=NC(=O)C(CC(=O)Nc2ccc3c(c2)OCO3)S1 (stereo not drawn)	0.8%	3	0.1	10	-1	-4	14%
COc1ccc(/C=C/C(=O)NC(=S)NNC(=O)[C@H]2C[C@@H]2c2ccccc2)cc1OC	3.9%	1	-1.7	-25	-17	-32	28%
COc1ccccc1NS(=O)(=O)c1ccc(N/N=C/C=C/c2ccccc2[N+](=O)[O-])c([N+](=O)[O-])c1	-3.3%	16	2.2	-27	-17	-11	-1%
COc1ccc(OCc2nnc(SCC(=O)O)n2N)cc1	2.8%	6	-2.2	-1	9	-3	0%
CCOc1ccc(NC(=O)CSc2ncnc3c2sc2ccccc23)cc1	u	7	-1.5	17	11	-10	-14%
CC(=O)c1cc(NC(=O)c2ccccc2)c(=O)oc1/C=C/N(C)C	0.8%	-13	0.7	-5	-1	-16	4%
C=CCn1c(SCC(=O)NC(=O)Cc2ccccc2)nc2ccccc2c1=O	1.5%	-19	-5.6	4	5	0	x
O=C1CNC(=O)c2cc(Cl)ccc2N1	-0.1%	x	-4.2	-2	1	-3	x
O=C(COC(=O)CNC(=O)c1ccc(Cl)cc1Cl)NCC1CCCO1 (stereo not drawn)	-0.3%	-1	1.0	1	1	-9	x
COCCn1c(=S)[nH]c2cc(C(=O)N3CCN(c4cccc(Cl)c4)CC3)ccc2c1=O	0.0%	4	6.7	-25	-6	-28	8%
Cc1cc(C(C)(C)CC(C)(C)C)ccc1OCCOCC[N+](C)(C)Cc1ccccc1	-1.2%	-9	-11	-1	-6	-14	u
Cc1nn(CC(=O)Nc2ccc3c(c2)oc2ccccc23)c(=O)c2ccccc12	4.0%	0	-2.9	6	2	-14	u
COc1ccccc1N1CCN(C(=O)CN(Cc2ccc(Cl)cc2)S(C)(=O)=O)CC1	-0.1%[38.3 µM]	-15	-0.2	-13	-2	-9	-14%
COc1ccc(Cn2c(C)nc3c(c2=O)c2nc4ccccc4nc2n3Cc2ccco2)cc1	2.7%	x	-0.1	3	0	0	x
CCc1ccc2n(-c3ccc(OC)cc3)c([S-])c(C(=O)Nc3cc(C)cc(C)c3)[n+]2c1	7.5%	-4	-4.9	4	6	-10	-6%
N[C@@H](CO)c1cn([C@@H](Cc2cc3ccccc3[nH]2)C(=O)N2CCNCC2)nn1	1.0%	u	-4.0	-11	-25	-4	9%
CCc1ccc(-c2nc(C)c(CCO)c(=O)[nH]2)cc1	1.7%	3	-0.8	4	-2	-1	12%
COc1ccccc1Nc1nnc(C)c(=O)[nH]1	0.0%	-5	1.7	-1	6	-10	3%
COc1ccccc1-n1c(CCC(=O)O)ccc1-c1ccccc1	0.0%	-4	-5.1	0	-3	0	8%
Cc1cccc(NC(=S)N2CCCCCC2)c1	-0.1%	1	-2.2	6	-2	-16	-1%
CCCN(CCC)S(=O)(=O)c1ccc(C(=O)Nc2nnc(COC)o2)cc1	1.7%	4	-11	x	-2	-4	15%
Cn1c(=O)[nH]c(=O)c2c1nc(N1CCN(C(c3ccccc3)c3ccccc3)CC1)n2CCO	-0.1%	5	-1.2	x	-1	0	-12%

Five entries picked at random from the list so far, as already listed:
SMILES	PINK1 expr mod	TRPV1 potentiator	D2 agonist	CtBP-E1A blk	Six1-Eya2 inh	D2 PAM	Sfp PPTase inh
COc1ccc(OCc2nnc(SCC(=O)O)n2N)cc1	2.8%	6	-2.2	-1	9	-3	0%
COc1ccccc1NC(=O)c1ccccc1Oc1ccccc1	3.7%	14	1.1	24	22	0	6%
O=C(O)c1cc2cc(S(=O)(=O)O)ccc2cc1O	-3.1%	x	0.4	10	1	11	x
N[C@@H](CO)c1cn([C@@H](Cc2cc3ccccc3[nH]2)C(=O)N2CCNCC2)nn1	1.0%	u	-4.0	-11	-25	-4	9%
Cn1c(=O)[nH]c(=O)c2c1nc(N1CCN(C(c3ccccc3)c3ccccc3)CC1)n2CCO	-0.1%	5	-1.2	x	-1	0	-12%

Further compounds follow:
SMILES	PINK1 expr mod	TRPV1 potentiator	D2 agonist	CtBP-E1A blk	Six1-Eya2 inh	D2 PAM	Sfp PPTase inh
CN(C)c1ccc(/C=C(\C#N)c2ccccn2)cc1	5.0%	11	-2.8	10	6	-10	-9%
CC(C)(C)OC(=O)C[C@@H]1C/C=C\C[C@@H](CC(=O)NCCO)C(=O)N[C@H](Cc2ccccc2)COC1=O	4.8%	x	0.1	1	-2	-6	x
CN1CCC(N2CCN(C3CN(C4CCCC4)S(=O)(=O)C3)CC2)CC1 (stereo not drawn)	-1.1%	x	-2.4	10	5	-3	x
Cn1nc(-c2ccc(Cl)cc2)c2cc(C(=O)NC3CC3)sc21	6.4%	x	1.0	-23	-19	-3	-1%
O=C(O)C1CCN(S(=O)(=O)c2cccc3nonc23)CC1	2.1%	0	-4.4	1	1	-8	14%
COc1c2occc2c(OC(C)=O)c2c(=O)cc(C)oc12	-2.1%	2	-4.5	-1	-12	-3	8%
Cc1ccc(SCC(=O)c2cc(C)c(OC(=S)N(C)C)c(C)c2)cc1	2.9%	16	2.9	11	0	-13	10%
Cc1cc(=O)n2[nH]c(Nc3cccc(Cl)c3)nc2n1	3.4%	x	-4.1	x	u	-18	x
COc1ccc(N2CCN(C(=O)NC34CC5CC(CC(C5)C3)C4)CC2)cc1	-2.4%	-12	2.0	-10	-9	1	2%
Cc1ccc(S(=O)(=O)Nc2nc3ccccc3nc2N2CCc3ccccc3C2)cc1	2.1%	28	-0.7	5	12	1	9%
COc1ccc(COCC(O)CN2CCN(S(=O)(=O)c3c(F)cccc3F)CC2)cc1OC (stereo not drawn)	0.0%	x	-2.2	6	-5	-9	x
CCN1CCN(C(=O)c2ccc(N3CC4CC(C3)c3cccc(=O)n3C4)c(NC(=O)c3cc(OC)cc(OC)c3)c2)CC1 (stereo not drawn)	-1.0%	3	2.7	6	0	-7	6%
Cc1cc(NC(=O)CN2C(=O)NC(C)(c3ccc(Cl)cc3Cl)C2=O)no1 (stereo not drawn)	-0.3%	x	1.1	2	3	-1	x
Cc1noc(C)c1COc1ccc(C(=O)NCCOc2ccccc2)cc1	2.1%	-13	-8.6	-20	-6	-9	x
Cc1ccc(S(=O)(=O)N(CC(=O)NCCC2=CCCCC2)Cc2ccccc2)cc1	-0.8%[38.3 µM]	7	-2.1	11	7	-9	20%
CCOc1ccccc1NC(=O)COC(=O)C12CC3CC(CC(O)(C3)C1)C2	3.1%	14	-1.2	7	-5	-14	x
Cc1ccc(NC(=O)CN2C(=O)S/C(=C\c3cc(Cl)c(OCC(=O)O)c(Cl)c3)C2=O)cc1	3.1%	2	1.6	x	-4	12	50µM*

Three entries from above, arranged by the number in CtBP-E1A blk, falling.
canonical_smiles,CtBP-E1A blk
Cc1ccc(S(=O)(=O)N(CC(=O)NCCC2=CCCCC2)Cc2ccccc2)cc1,11
CCOc1ccccc1NC(=O)COC(=O)C12CC3CC(CC(O)(C3)C1)C2,7
Cc1noc(C)c1COc1ccc(C(=O)NCCOc2ccccc2)cc1,-20
